Screens: PubChem BioAssay, National Center for Advancing Translational Sciences (NCATS)
VACV mCherry inh: qHTS for Stage-Specific Inhibitors of Vaccinia Orthopoxvirus: mCherry Reporter Primary qHTS; Vaccinia virus mCherry reporter infection, fluorescence; about a quarter of the inactives have no number; Potency, µM (highest dose often 36.5 µM), for inactives: top-dose activity change, negative = inhibition, usual class: inhibitors; 310,000 compounds, 0.63% hits; AID 720579, 2013; active = well fitted inhibition curve with a large enough effect; inconclusive = small, poorly fitted or top-dose-only effect; inactive = no such curve, though single readings can be large or run the other way; tested in A549 cells; note: nearly all actives have a fitted effect of over 35% in size; inactives centre near -10
VACV Venus inh: qHTS for Stage-Specific Inhibitors of Vaccinia Orthopoxvirus: Venus Reporter Primary qHTS; Vaccinia virus Venus reporter expression, fluorescence; 330,000 compounds, 0.46% hits; Potency, µM (doses to about 36.5 µM), for the others: top-dose activity change, negative = inhibition, hits mostly inhibitors; AID 720580, 2013; active means well fitted inhibition curve with a large enough effect; inconclusive means small, poorly fitted or top-dose-only effect; inactive means no such curve, though single readings can be large or run the other way; tested in A549 cells; note: nearly all actives have a fitted effect of over 30% in size; inactives centre near -10
* hit, by the source's call; i = inactive; ? = inconclusive; . = not tested or not shown; & = joins results of further samples; [ ] = another dose, or the depositor's remark. % is set by controls: 0 for no effect and ±100 for the full control effect; potency is the fitted concentration of half-maximal effect. Rows were taken by chance (roughly 0.88% active in at least one column).

Compound | VACV mCherry inh | VACV Venus inh
COc1cc(OC)cc(C(=O)NC(C(=O)Nc2ccc(N3CCOCC3)cc2)C(C)C)c1 (centres undefined) | -14% | -13%
CCN(CC)S(=O)(=O)c1ccc(/C=C/C(=O)Nc2cccc(F)c2)cc1 | i | -15%
CC(c1ccccc1)N1C(=O)c2ccc(C(=O)NCc3cccnc3)cc2C1=O (centres undefined) | -6% | -7%
COc1cccc(C(=O)Nc2ccc3oc(-c4ccc5ccccc5c4)nc3c2)c1 | -7% | -10%
CC1CN(c2nc3ccccc3nc2SCC(=O)Nc2cccc(C(F)(F)F)c2)CC(C)O1 (centres undefined) | i | -13%
COc1ccc(OC)c2[nH]c(=O)c(CCNS(=O)(=O)c3ccc(Cl)cc3)cc12 | . | -7%
Cc1ccc(-c2noc(-c3ccc(N4CCN(C)CC4)c([N+](=O)[O-])c3)n2)cc1 | -12% | -6%
Cc1ccccc1C(=O)NC(=S)NC1CCSC1=O (centres undefined) | i | -11%
CC1CCN(c2nc3c(S(=O)(=O)c4ccccc4)nnn3c3ccc(Cl)cc23)CC1 | -25% | -18%
CCCCc1c(-c2ccccc2OC)ncn1CCc1cccc(Cl)c1 | -23% | ?
Cc1cc(O)c2c(c1)C(O)(C1OC(CO)C(O)C(O)C1O)c1cccc(O)c1C2=O (centres undefined) | ? | 5%
COc1ccc(CCNC(=O)C2CCN(S(=O)(=O)N3CCC4(CC3)OCCO4)CC2)cc1OC | -21% | -9%
CCCC1O[C@@H]2C[C@H]3[C@@H]4CCC5=CC(=O)C=C[C@]5(C)[C@H]4[C@@H](O)C[C@]3(C)[C@]2(C(=O)CO)O1 (some centres undefined) | -23% | -18%
Cc1nc2ccccc2c(N)c1C(=O)/C=C/c1ccccc1 | 16µM* | ?
O=C(Nc1ccc2nc(C(F)(F)F)[nH]c2c1)[C@@H]1O[C@H](CO)[C@@H](O)[C@H]1O | 11% | -3%

Continued.
Compound | VACV mCherry inh | VACV Venus inh
COc1ccc(C(N)c2csc(Nc3ccc(C(F)(F)F)cn3)n2)cc1 (centres undefined) | -7% | -26%
Cc1ccc2nc3c(nc2c1C)C(O)=C3O | -4% | -3%
COc1ccccc1Cc1c(-c2ccc(Cl)cc2)nc2ccc(Cl)cn12 | -17% | -18%
O=C(NCCc1ccccc1Cl)c1sc2ncccc2c1-n1cccc1 | -6% | 11%
NC(=O)NC(=O)C[n+]1cccc(/C=N/O)c1 | -7% | 7%
CCC(=O)Nc1ccc(C)cc1-c1nc2ccccc2n(Cc2ccccc2)c1=O | -7% | -4%
CCOC(=O)C1CCN(C(=O)C2CCCN(S(=O)(=O)c3ccc(OCC)c(Cl)c3)C2)CC1 (centres undefined) | i | -21%
COc1ccc(CN2C(=O)c3ccccc3C2C(=O)NCc2cccnc2)c(OC)c1 (centres undefined) | -13% | -4%
O=S(=O)(NCc1nc(-c2ccccc2)no1)c1ccc(F)cc1 | -21% | -10%
Cc1ccc(NC(=O)CN(CCc2ccccc2)S(C)(=O)=O)cc1 | i | -7%
COc1ccc(CNCC(C)NCc2ccc(OC)c(OC)c2)cc1OC (centres undefined) | i | -15%
CCN(CC)c1ccc(C(=O)n2cnc3ccccc32)cc1 | 14µM* | ?
CCOc1cc2[nH]c(=O)n(Cc3ccc(C(=O)N4CCN(c5cccc(Cl)c5)CC4)cc3)c(=O)c2cc1OCC | -21% | -19%
C[C@]12CC[C@@H](O)C[C@@H]1CC[C@@H]1[C@@H]2CC[C@]2(C)[C@@H](O)CC[C@@H]12 | i | -14%
COC(=O)c1ccc(-c2nc(-c3ccc(OC)c(OC)c3)no2)cc1 | -14% | -5%

Retrieved by compound from above:
Compound | VACV mCherry inh | VACV Venus inh
NC(=O)NC(=O)C[n+]1cccc(/C=N/O)c1 | -7% | 7%
CCN(CC)c1ccc(C(=O)n2cnc3ccccc32)cc1 | 14µM* | ?
COc1ccc(C(N)c2csc(Nc3ccc(C(F)(F)F)cn3)n2)cc1 (centres undefined) | -7% | -26%
O=C(NCCc1ccccc1Cl)c1sc2ncccc2c1-n1cccc1 | -6% | 11%

(further entries)
Compound | VACV mCherry inh | VACV Venus inh
CCN(C1CCCCC1)S(=O)(=O)c1c(C)n(C)c(=O)n(C)c1=O | -2% | -14%
COc1cc(C)ccc1OCCCCN1CC(C)OC(C)C1 (centres undefined) | -13% | ?
N#Cc1cnc(NN)nc1 | i | 5%
CC1CCC(NC(=O)C(NS(=O)(=O)c2cccc3nsnc23)C(C)C)CC1 (centres undefined) | 0%[7.34 µM] | 10%[7.34 µM]
NC(=O)CC(NC(=O)c1ccccc1)c1ccc(N2CCC(Br)CC2)c([N+](=O)[O-])c1 (centres undefined) | -6% | ?
O=C(O)/C=C/c1cccc(NS(=O)(=O)c2ccccc2)c1 | -10% | -3%
COc1ccc(C(=O)OCC(=O)NC2CC2)cc1F | -21% | -12%
Cn1nnnc1SCC(=O)N(C1CCCCC1)C1CCS(=O)(=O)C1 (centres undefined) | 2% | 3%
CC(C)n1c(NCc2ccc(Cl)cc2)nc2ccccc21 | -20% | -13%
CC(C)COc1ccc(C(=O)N2C(=O)c3ccc(N)cc3C2=O)cc1 | i | -10%
COc1ccc2[nH]c3c(c2c1)CCNC3 | -14% | -23%
CCOc1ccc(NC(=O)CSc2nc3ccsc3c(=O)n2CCCCCC(=O)O)cc1 | -8% | -5%&-2%
COc1ccc(NC(=O)CCNS(=O)(=O)c2ccc(NC(C)=O)cc2)cc1Cl | 14% | 20%
CCCCCCn1cc(C(=O)OCC)c(=O)c2cc(F)c(F)cc21 | -4% | -13%
N#CC(CC(=O)c1ccc(F)cc1)c1ccc2c(c1)OCO2 (centres undefined) | -8% | -13%

Following part
Compound | VACV mCherry inh | VACV Venus inh
CCCC(=O)N1CC(=O)Nc2ccc(Br)cc2C1c1ccc(F)cc1 (centres undefined) | i | -7%
N/C(=N\OC(=O)c1ccc(Cl)c(Cl)c1)c1cccc(CSc2ccccn2)c1 | -18% | -8%
Cc1cccc(Oc2ccc(Cl)cc2N)c1 | -7% | -16%
CCOC(=O)C1C(=O)NC(c2ccccc2)=NC1c1cccc(Br)c1 (centres undefined) | i | 2%
Fc1ccccc1C(c1nnnn1C1CCCC1)N1CCN(Cc2ccccc2)CC1 (centres undefined) | i | -16%
COc1ccc(CC(=O)Nc2cc(=O)n(C)c(=O)n2C)cc1OC | -16% | -13%
CC1(C)CC(=O)C(C=NCC2CCN(C(=O)Cc3ccccc3)CC2)=C(O)C1 | -2% | -10%
CC1CCCN(S(=O)(=O)c2ccc(C(=O)Nc3nnc(C4CC4)o3)cc2)C1 (centres undefined) | ? | -17%
CCOC(=O)c1cc2c(=O)n3ccccc3nc2n(CC2CCCO2)c1=NC(=O)c1cc(C)cc(C)c1 (centres undefined) | ? | ?
CC(C)NC(=O)N(C)C[C@H]1Oc2ccc(NS(=O)(=O)c3ccc(F)cc3)cc2C(=O)N([C@H](C)CO)C[C@@H]1C | i | -6%
COc1cc(/C=C/C(=O)N2CCN(CC(O)COc3ccccc3)CC2)cc(OC)c1OC (centres undefined) | . | -10%
Cc1cccc(N=Nc2ccc(N(C)C)cc2)c1 | ? | -9%
CN1CCN(c2ccc(Cl)cc2NC(=O)c2nn(-c3ccccc3)c(=O)c3ccccc23)CC1 | -11% | -5%
CCN(CC)c1ccc(/C=N/N2CCN(Cc3ccccc3Cl)CC2)c(O)c1 | ? | -2%[7.34 µM]
Cc1cccc2sc(NC(=O)CCNC(=O)c3ccco3)nc12 | -13% | -10%

Additional results.
Compound | VACV mCherry inh | VACV Venus inh
Cc1ccccc1OCCC(=O)OCC(=O)Nc1ccc(C)c(S(=O)(=O)N2CCCCC2)c1 | i | 0%
CCOc1ccc(N(CC(=O)Nc2ccc(F)c(F)c2)S(=O)(=O)c2c(C)noc2C)cc1 | 19% | -10%
COCCn1c(NC(=S)NC(=O)C23CC4CC(CC(C4)C2)C3)cc(=O)[nH]c1=O | 5% | 5%
O=C(Nc1nnc2n1CCS2)c1ccccc1 | -10% | -5%
O=C(CSc1nnc(-c2ccco2)o1)NC1CCCCC1 | -11% | -2%
Cn1c(=O)[nH]c(=O)c2c1nc(CN1CCN(c3ccccc3F)CC1)n2CCc1ccccc1 | -3% | -30%
O=C(CN1C2=NCCCN2c2ccccc21)c1ccc(Br)s1 | . | -21%
Cc1ccc(NC(=O)Cn2c(=O)n(Cc3ccccc3)c(=O)c3c2c2cc(C)ccc2n3C)cc1 | -10% | 0%
COc1ccc(OC)c(/C=C/c2c3ccccc3cc[n+]2C)c1 | -20% | -24%
CC(/C=N/NC(=O)c1ccc(Cn2cc([N+](=O)[O-])cn2)o1)=C\c1ccccc1 | -11% | -12%
CCC(=O)N1CCc2cc(S(=O)(=O)NCCC(=O)NCc3ccccc3Cl)ccc21 | -11% | -8%
CCN(C(=O)CCN1C(=O)c2ccccc2C1=O)C1CCCCC1 | -4% | 11%
CCOc1ccc(C2NC(=O)NC(C)=C2C(=O)OCc2ccccc2)cc1 (centres undefined) | -19% | -18%
COC(=O)c1ccc(N2CCCCC2)c(NS(=O)(=O)c2ccc(C)cc2)c1 | -5% | 1%
Cc1ccc(NC(=O)CN2C(=O)CN=C(c3ccccc3)c3cc(Cl)ccc32)cc1 | -15% | ?

Going on with the list:
Compound | VACV mCherry inh | VACV Venus inh
CCOC(=O)N1N=C(c2ccccc2)CC1(O)C(C)(F)F (centres undefined) | i | -16%
Clc1ccc(-c2nnc(-c3ccccc3)c(-c3c[nH]c4ccccc34)n2)cc1 | i | 1%
CCC1(CC)C(=O)N(Cc2ccccc2)C(=O)N(Cc2ccccc2)C1=O | -9% | -7%
O=C(Nc1cc(Cl)ccc1Cl)c1cc2nc(-c3ccc4c(c3)OCO4)cc(C(F)(F)F)n2n1 | -14% | -2%
O=C1c2ccccc2C(Nc2ccc(Cl)cn2)N1Cc1ccccc1 (centres undefined) | ? | -20%
CCCCNC(=O)CSc1nc2ccc(C)cc2[nH]1 | -5% | -5%
CCCCC(=O)NNC(=S)NC(=O)c1ccc(C)cc1 | ? | 1%
COc1cc(C(=O)OCC(=O)c2c(N)n(C)c(=O)n(C)c2=O)ccc1OCCC(C)C | 2% | -4%
O=S(=O)(N/N=C/c1ccc(OC2CSC2)cc1)c1ccccc1 | -17% | -11%
CCCn1c(=O)c2ccccc2n2c(SCC(=O)c3cc(C)n(CCOC)c3C)nnc12 | -16% | -6%
CCc1ccc(N(CC(=O)NC2CCCCC2)C(=O)CNC(=O)c2ccco2)cc1 | -10% | -7%
Cc1ccc(S(=O)(=O)N(C)C)cc1NC(=O)CCNC(=O)c1ccccc1Cl | -18% | -13%
Cn1cccc1Cc1nnc(SCC(=O)Nc2ccccc2F)n1CCc1ccccc1 | -5% | 0%
Cc1nc(N2CCOCC2)c2c(C)c(C(=O)Nc3ccc(F)cc3F)sc2n1 | i | -24%
COc1ccc(C(=O)CN2C(=O)NC3(CCc4ccccc43)C2=O)cc1 (centres undefined) | i | -12%

The listing continues.
Compound | VACV mCherry inh | VACV Venus inh
CCOC(=O)Nc1cc(OC)c(OC)cc1Cc1nccc2cc(OC)c(OC)cc12 | i | -17%
Cc1cccc(-n2c3c(cc(-c4nc(-c5ccc(Cl)cc5)cs4)c2=O)C(=O)CC(C)(C)C3)c1 | 2% | -2%
CC(=O)c1ccc(S(=O)(=O)Nc2cccc(-c3ccc(N4CCCC4)nn3)c2)cc1 | -10% | -9%
CCC(O)(CCN1CCCCC1)c1ccccc1 (centres undefined) | -10% | -3%
CCOc1ccc(C(C)=O)cc1CN1C(=O)NC(C)(C2CC2)C1=O (centres undefined) | -14% | -9%
CN1CCN(CCCNC(=O)c2ccc(Cn3c(=S)[nH]c4ccc(Br)cc4c3=O)cc2)CC1 | -2% | -9%
N#Cc1ccc2[nH]cc(C3c4cc(F)ccc4C=C(c4ccsc4)N3c3ccc(C#CCCO)cc3)c2c1 (centres undefined) | -6% | -10%
CCC(Sc1ccc(Cl)cc1)C(=O)Nc1nnc(-c2cccc([N+](=O)[O-])c2)s1 (centres undefined) | -20% | -8%
C/C=C(\C)C(=O)N[C@@H](c1ccccc1)[C@@H](O)C(=O)O[C@H]1C[C@@]2(O)[C@@H](OC(=O)c3ccccc3)C3[C@](C)(C(=O)[C@H](OC(C)=O)C(=C1C)C2(C)C)[C@H](O)C[C@H]1OC[C@@]31OC(C)=O (some centres undefined) | -28% | -22%
COc1cc(NC(=O)c2ccc(COCC(F)(F)F)cc2)cc(OC)c1OC | i | -17%
C=CCN(C(=O)C1CC(=O)N(C2CCCC2)C1)c1nc(-c2ccc(S(C)(=O)=O)cc2)cs1 (centres undefined) | ? | ?

2 entries from above in another layout.
CN1CCN(CCCNC(=O)c2ccc(Cn3c(=S)[nH]c4ccc(Br)cc4c3=O)cc2)CC1
  VACV mCherry inh: -2% | VACV Venus inh: -9%
Cc1cccc(-n2c3c(cc(-c4nc(-c5ccc(Cl)cc5)cs4)c2=O)C(=O)CC(C)(C)C3)c1
  VACV mCherry inh: 2% | VACV Venus inh: -2%
